D2 agonist = agonists of human D2 dopamine receptor (beta-arrestin); DiscoveRx PathHunter D2 beta-arrestin, luminescence, 90 min; 100% = 57 uM dopamine signal; activation, % (no concentration beside the values); 360,000 compounds, 0.084% hits; in the data active = activation above about 40%; inconclusive = about 15% to 40%; inactive = below about 15%; note: compound concentration not given in the record; the text of the record calls up to 30% inactive
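Agonist mode: compounds alone added to overnight-plated D2 PathHunter cells for 90 min at 37 C, with 57 uM final dopamine (EC100) defining full response. Beta-arrestin recruitment detected by chemiluminescent reagent, read after 1 h at ambient temperature.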
Sfp PPTase inh = blocks B. subtilis Sfp PPTase activity. Q9F4F7. Biochemical Sfp PPTase activity, qHTS. Potency, µM, for inactives: max response, negative = inhibition, usual class: inhibitors. 310,000 compounds, 3.5% hits; active = well fitted inhibition curve with a large enough effect; inconclusive = small, poorly fitted or top-dose-only effect, or another doubt; inactive = no such curve, though single readings can be large or run the other way;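 note: the enzyme is Sfp with the accession as filed and its product quenches rhodamine fluorescence; potency is the fitted concentration of half-maximal effect; 0% = enzyme reaction without inhibitor and -100% = no enzyme wells; top concentration of the series not given in the record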
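Compounds were incubated with enzyme (final 15 nM) for 15 min at room temperature before substrate addition started the reaction. Fluorescence at 525 nm excitation, 598 nm emission was recorded immediately and after 30 minutes.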
D2 potentiator = potentiates the human D2 dopamine receptor allosterically | DiscoveRx D2 beta-arrestin cells, luminescence, 90 min; 100% = 57 uM dopamine signal | potentiation, % (concentration not given with the values) | 360,000 compounds, 0.23% hits; active = potentiation of 50% or more; inconclusive = 30% to 50%; inactive = 30% or less;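 note: tested on top of an EC20 dose of dopamine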
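PathHunter beta-arrestin assay in DiscoveRx D2 cells. Compounds were added with an EC20 of dopamine (50 nM final) for 90 min at 37 deg C. Luminescence was read 1 h after detection reagent, with 57 uM dopamine as the EC100 control.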
TRPV1 potentiator = enhances activation of the human vanilloid receptor TRPV1 | 320,000 compounds, 0.02% hits | TRPV1-expressing cells, Fluo-8 calcium influx, capsaicin EC20 potentiation; host cell line not named in the record; control for the full effect not named in the record | Q8NER1 | potentiation, % at 8.33 µM; active means potentiation above 80%; inconclusive means 30% to 80%; inactive means below 30%; note: 0% is about no effect
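TRPV1-expressing cells were cultured overnight at 35.5C and loaded with Fluo-8 calcium dye for 40 to 90 min at room temperature. After a 10 s baseline, compound was added and calcium influx was read kinetically for 3 min (ex 480/em 520 nm).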
Six1-Eya2 inh = Six1/Eya2 interaction inhibition; activity change, % (no concentration beside the values); Q15475+O00167; AlphaScreen GST-Six1/His-Eya2 binding, biochemical; stronger effect = lower value; control for the full effect not named in the record; 360,000 compounds, 0.56% hits; in the data active = activity change below about -65%; inconclusive = about -30% to -65%; inactive = above about -30%; note: % is set by controls: 0 for no effect and ±100 for the full control effect
Target sequence (O00167 whole entry, looked up): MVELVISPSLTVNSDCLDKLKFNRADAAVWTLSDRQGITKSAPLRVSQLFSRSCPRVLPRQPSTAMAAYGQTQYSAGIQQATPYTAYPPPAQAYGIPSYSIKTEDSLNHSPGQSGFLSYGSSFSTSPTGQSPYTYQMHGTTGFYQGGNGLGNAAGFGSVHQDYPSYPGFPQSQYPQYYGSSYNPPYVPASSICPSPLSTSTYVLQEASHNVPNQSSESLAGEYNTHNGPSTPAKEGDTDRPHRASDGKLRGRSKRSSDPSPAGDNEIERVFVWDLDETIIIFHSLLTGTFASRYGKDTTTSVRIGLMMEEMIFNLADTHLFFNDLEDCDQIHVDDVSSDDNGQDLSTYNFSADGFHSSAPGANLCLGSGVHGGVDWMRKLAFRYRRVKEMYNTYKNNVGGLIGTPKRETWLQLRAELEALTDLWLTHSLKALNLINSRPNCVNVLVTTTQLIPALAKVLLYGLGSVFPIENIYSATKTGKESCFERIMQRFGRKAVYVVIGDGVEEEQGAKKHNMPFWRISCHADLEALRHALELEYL
Target sequence (Q15475 whole entry, looked up): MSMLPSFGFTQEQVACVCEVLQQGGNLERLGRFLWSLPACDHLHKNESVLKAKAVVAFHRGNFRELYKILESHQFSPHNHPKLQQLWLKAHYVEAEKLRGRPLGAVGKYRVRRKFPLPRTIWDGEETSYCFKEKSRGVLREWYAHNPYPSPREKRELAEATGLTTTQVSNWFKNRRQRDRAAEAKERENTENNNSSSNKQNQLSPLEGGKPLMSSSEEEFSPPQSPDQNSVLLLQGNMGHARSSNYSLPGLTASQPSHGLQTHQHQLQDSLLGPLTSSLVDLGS
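Homogeneous AlphaScreen proximity assay pairing GST-Six1 with His-tagged Eya2 (added as 5X mix: 250 nM and 500 nM) in 50 mM Tris pH 8.0, 300 mM NaCl, 1 mM TCEP. Glutathione donor and nickel acceptor beads; 1 h, 37 °C, dark.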
PINK1 expr mod = changes PINK1 expression; PINK1 immunofluorescence, high-content cytometry, 24 h; 410,000 compounds, 0.2% hits; Potency, µM (series often up to 76.6 µM), for the others: top-dose activation (PINK1 increase), hits mostly activators; AID 624263; active = well fitted activation curve with a large enough effect; inconclusive = small, poorly fitted or top-dose-only effect; inactive = flat fitted curve, though single readings scatter; cell line not stated here;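 note: potency is the fitted concentration of half-maximal effect; % of control where 0% means no effect; nearly all actives have a fitted effect of over 65% in size; a mitochondrial uncoupler was the plate control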
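Decision-based qHTS: stable cells, 24 h exposure to five compound concentrations, CCCP as control. Fixed cells stained for PINK1 plus nuclear, mitochondrial and cell markers, cytometer read.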
CtBP-E1A inh = blocks the CtBP interaction with E1A; AlphaScreen GST-E1A/His-CtBP binding, 1536-well; stronger effect = lower value; control for the full effect not named in the record; activity change, % (concentration not given with the values); 340,000 compounds, 0.49% hits; in the data active means activity change below about -65%; inconclusive means about -30% to -65%; inactive means above about -30%; note: % is set by controls: 0 for no effect and ±100 for the full control effect
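Steps: dispense buffer (Tris pH 8.0, NaCl 300 mM, TCEP 1 mM, BSA, Tween 20); add 5X protein mix (GST-E1A, His-CtBP, 125 nM each); pin 23 nL compound; 2 h at 37 °C, dark; add 5X beads (50 ug/mL); 1 h; read.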
* = called active by the depositor; ? = inconclusive; . = not tested or not shown; & = joins results of further samples; [ ] = remark or other dose. Rows are unselected; any-hit rate near 3.7%.

SMILES	CtBP-E1A inh	D2 agonist	D2 potentiator	Sfp PPTase inh	PINK1 expr mod	Six1-Eya2 inh	TRPV1 potentiator
CCN(CC(=O)NCc1ccc(Cl)cc1)C(=O)CSCC(=O)Nc1ccc(OC)cc1	0	-6.3	21	.	0.7%	-3	-5
O=C(COC(=O)CNC(=O)c1ccco1)Nc1ncc(Cl)cc1Cl	4	1.4	-1	.	-0.9%	-2	5
COc1ccc(N2C(=O)CC(N3CCN(c4ccc(S(=O)(=O)N5CCCC5)cc4)CC3)C2=O)cc1 (stereo not given)	1	-0.8	-2	-7%	-1.8%	4	-1
CCOc1cc(CNc2cccc3[nH]c(C)nc23)ccc1OC	-6	4.9	3	-11%	13%	1	29
COc1ccc(/C=N/NC(=O)c2nc(Cl)c(Cl)c(N)c2Cl)cc1COc1ccccc1F	4	-1.4	11	7%	25%	-4	4
CCCc1ccc(C(=O)NNc2cc(Cl)ccc2Cl)cc1	10	-4.9	-6	-3%	1.2%	15	-8
CCOC(=O)CNC(=S)N(Cc1ccc(C)cc1)Cc1ccc(C)o1	-6	4.4	-19	?	-2.5%	2	-22
Cc1ccc(C)c(NC(=O)C2CCCC2)c1	.	-4.3	-18	.	0.9%	0	.
COc1ccc(C(=O)c2c3ccc([N+](=O)[O-])cc3[n+]([O-])n2CCCN)cc1	-12	6.1	8	.	0.0%	-6	22
CC(C)(c1ccccc1)c1ccc(OCCCN2CCNCC2)cc1	-10	-8.8	-7	40µM*	2.1%	-27	5
CCc1ccc(NC(=O)CS(=O)CC(=O)NC(C)CCc2ccco2)cc1 (stereo not given)	6	-0.5	-2	0%	-0.7%	3	8
Cc1cccc(OCc2nnc(SC(C)C(=O)O)n2Cc2ccccc2)c1 (stereo not given)	6	-2.5	-4	4%	3.9%	3	6

Whole records as entered above:
Shown for CC(C)(c1ccccc1)c1ccc(OCCCN2CCNCC2)cc1 : CtBP-E1A inh = -10; D2 agonist = -8.8; D2 potentiator = -7; Sfp PPTase inh = 40µM*; PINK1 expr mod = 2.1%; Six1-Eya2 inh = -27; TRPV1 potentiator = 5
Shown for CCc1ccc(NC(=O)CS(=O)CC(=O)NC(C)CCc2ccco2)cc1 (stereo not given) : CtBP-E1A inh = 6; D2 agonist = -0.5; D2 potentiator = -2; Sfp PPTase inh = 0%; PINK1 expr mod = -0.7%; Six1-Eya2 inh = 3; TRPV1 potentiator = 8

The list continues.
SMILES	CtBP-E1A inh	D2 agonist	D2 potentiator	Sfp PPTase inh	PINK1 expr mod	Six1-Eya2 inh	TRPV1 potentiator
CC1CCCN(S(=O)(=O)c2ccc(-c3ccc(=O)[nH]n3)o2)C1 (stereo not given)	.	-6.7	0	10%	7.4%	-2	-6
Cn1cc(/C=C(\NC(=O)c2ccccc2)C(=O)NCCCN2CCOCC2)c2ccccc21	2	0.5	-8	6%	-1.3%	2	10
CC(Sc1ccc(Cl)cc1)C(=O)Nc1ccccc1C(=O)N1CCOCC1 (stereo not given)	2	-4.3	-16	4%	-2.0%	6	-9
O=C(NCCN1CCOCC1)c1c[nH]c2ccc(S(=O)(=O)N3CCOCC3)cc2c1=O	0	-1.9	-12	10%	-0.7%	9	5
Cc1cc(C(=O)N/N=C/c2ccc(-c3ccc([N+](=O)[O-])cc3Cl)o2)n[nH]1	1	6.9	2	-20%	1.2%	-8	-2
Cn1c(=O)[nH]c(=O)c2c1nc(N1CCNCC1)n2CCOc1ccccc1	6	-1.2	-18	.	0.0%	4	.
CCn1ccnc1CN(C)C(=O)c1cc(COc2ccc(Cl)cc2OC)on1	-20	-5.3	-11	15%	1.4%	?	-15
FC(F)(F)c1ccc(C2[C@H]3CN(Cc4cccnc4)[C@H](c4ccccc4)C34CC2(c2ccccc2)C4)cc1 (stereo not given in full)	-7	-3.9	-6	?	?	-9	-12
O=C(CCNS(=O)(=O)c1ccc(Br)cc1)NC1CCCCC1	0	-0.4	-5	15%	-0.6%	3	-10
CCOc1ccc(-c2cc(C(=O)N3CCN(C)CC3)c3ccccc3n2)cc1	3	-4.3	-17	19%	2.7%[38.3 µM]	0	?
Nc1ccc[n+](CC(=O)c2ccccc2)c1	.	-3.1	-3	7%	0.1%	3	20
O=C(CSc1ccccn1)N1CCCC(Nc2ccccc2)C1 (stereo not given)	1	1.7	-10	10%	0.9%	1	-3

Four records drawn at random from those above, as already listed:
SMILES	CtBP-E1A inh	D2 agonist	D2 potentiator	Sfp PPTase inh	PINK1 expr mod	Six1-Eya2 inh	TRPV1 potentiator
O=C(CCNS(=O)(=O)c1ccc(Br)cc1)NC1CCCCC1	0	-0.4	-5	15%	-0.6%	3	-10
Cc1cc(C(=O)N/N=C/c2ccc(-c3ccc([N+](=O)[O-])cc3Cl)o2)n[nH]1	1	6.9	2	-20%	1.2%	-8	-2
O=C(COC(=O)CNC(=O)c1ccco1)Nc1ncc(Cl)cc1Cl	4	1.4	-1	.	-0.9%	-2	5
COc1ccc(/C=N/NC(=O)c2nc(Cl)c(Cl)c(N)c2Cl)cc1COc1ccccc1F	4	-1.4	11	7%	25%	-4	4

(continued)
SMILES	CtBP-E1A inh	D2 agonist	D2 potentiator	Sfp PPTase inh	PINK1 expr mod	Six1-Eya2 inh	TRPV1 potentiator
COc1ccc(Br)cc1CN1CCCCCCC1	-5	2.0	-17	?	2.8%[38.3 µM]	5	-12
CCOC(=O)[C@@H]1[C@H]2COc3cc(OC)ccc3[C@@H]2N2C(=O)N(c3ccc(C)cc3)C(=O)[C@@]12C	-19	-2.6	-9	20%	-1.5%	-5	7
CCS(=O)(=O)N1CCN(c2c(Cl)cccc2[N+](=O)[O-])CC1	0	-6.9	-7	11%	1.1%	-7	15
O=C(CNc1ccccc1)N/N=C/c1ccc([N+](=O)[O-])cc1	-10	1.7	1	-23%	-0.7%	-8	-2
O=c1[nH]c(/C=C\c2cccc(Cl)c2)nc(O)c1[N+](=O)[O-]	.	-1.0	-7	-9%	1.9%	-3	6
Cc1ccccc1CC(=O)N1CCCC(CCC(=O)N2CCN(c3ccccn3)CC2)C1 (stereo not given)	11	-3.2	5	5%	2.5%	-1	15
COc1cc(OC)c(C(=O)OCC(=O)c2cc(C)n(CC3CCCO3)c2C)cc1OC (stereo not given)	0	1.9	8	2%	-1.4%	-22	7
CCCCC[C@H](O)/C=C/[C@@H]1[C@@H](C/C=C\CCCC(=O)O)[C@@H](O)C[C@H]1O	-2	-6.5	-4	32%&7%&29%	0.7%	-1	-7
Cc1ccc2nc(C)cc(N/N=C/c3cccnc3)c2c1	-18	-4.4	-7	19%	-1.3%	-6	-3
CCOC(=O)c1c(C)nc2sccn12	-1	-1.8	-5	5%	-1.4%[38.3 µM]	0	8
Cc1cc(NC(=O)c2ccc(Cl)cc2)no1	8	0.9	-9	11%	3.7%[38.3 µM]	7	-22
CC(C)(C)C1CCc2sc(-c3nnc(CCl)o3)cc2C1 (stereo not given)	-3	6.9	-8	-1%	0.4%	3	-8

Next part:
SMILES	CtBP-E1A inh	D2 agonist	D2 potentiator	Sfp PPTase inh	PINK1 expr mod	Six1-Eya2 inh	TRPV1 potentiator
O=C(CCN1CCN(c2ccccc2)CC1)Nc1nccs1	4	14	-28	10%	-3.6%	-3	-2
Cc1ccc(C(=O)N2CCC3(CC2)Oc2ccc(F)cc2C(=O)C32CC(c3ccccc3)=NO2)s1 (stereo not given)	-12	-4.2	-15	15%	3.8%	-14	9
CCN(CC)S(=O)(=O)c1ccc(S(=O)(=O)NCc2cccs2)cc1	-1	-1.9	4	11%	2.7%	0	-1
O=C(NCc1ccc(F)cc1)c1noc2c1CCCC2	3	-1.1	10	3%	2.7%[38.3 µM]	0	-24
CCC(C)(C)NC(=O)CN(C(=O)c1snc(C(N)=O)c1N)c1ccc2c(c1)OCO2	-2	0.3	-3	6%	-3.7%[38.3 µM]	-3	-21
CC(C)CCNC(=O)C(CC(C)C)N(Cc1ccc2c(c1)OCO2)C(=O)c1snc(C(N)=O)c1N (stereo not given)	-12	-5.7	-1	25%	1.0%	0	3
O=C(CC1SC(=Nc2ccccc2)N(CCc2c[nH]c3ccccc23)C1=O)Nc1ccccc1F (stereo not given)	-15	-7.3	-10	?	-1.6%	-7	-15
Cc1ccc(NS(=O)(=O)c2ccc(NC(=O)C3CC3)cc2)c(C)c1	1	0.2	-2	10%	-0.2%	10	3
Fc1ccc(-n2c(Cc3ccccc3)nnc2SCc2nc(-c3ccc(Cl)cc3)no2)cc1	-4	-0.8	-4	4%	-0.1%[38.3 µM]	1	7
O=C(NCCc1ccccn1)C1CC(=O)N(Cc2ccccc2Cl)C1 (stereo not given)	5	-2.1	2	9%	11%[38.3 µM]	1	.

Gathered by group, the compounds so far with a thiophene ring, fused or not
SMILES	CtBP-E1A inh	D2 agonist	D2 potentiator	Sfp PPTase inh	PINK1 expr mod	Six1-Eya2 inh	TRPV1 potentiator
CC(C)(C)C1CCc2sc(-c3nnc(CCl)o3)cc2C1 (stereo not given)	-3	6.9	-8	-1%	0.4%	3	-8
Cc1ccc(C(=O)N2CCC3(CC2)Oc2ccc(F)cc2C(=O)C32CC(c3ccccc3)=NO2)s1 (stereo not given)	-12	-4.2	-15	15%	3.8%	-14	9
CCN(CC)S(=O)(=O)c1ccc(S(=O)(=O)NCc2cccs2)cc1	-1	-1.9	4	11%	2.7%	0	-1

Bioassay records as filed in PubChem BioAssay.
